TRPV1 PAM: human TRPV1 potentiation. Q8NER1. TRPV1-expressing cells, Fluo-8 calcium influx, capsaicin EC20 potentiation; host cell line not named in the record; control for the full effect not named in the record. potentiation, % at 8.33 µM. 320,000 compounds, 0.02% hits. AID 540277; active means potentiation above 80%; inconclusive means 30% to 80%; inactive means below 30%; further: 0% is about no effect
Target sequence (Q8NER1 whole entry, looked up): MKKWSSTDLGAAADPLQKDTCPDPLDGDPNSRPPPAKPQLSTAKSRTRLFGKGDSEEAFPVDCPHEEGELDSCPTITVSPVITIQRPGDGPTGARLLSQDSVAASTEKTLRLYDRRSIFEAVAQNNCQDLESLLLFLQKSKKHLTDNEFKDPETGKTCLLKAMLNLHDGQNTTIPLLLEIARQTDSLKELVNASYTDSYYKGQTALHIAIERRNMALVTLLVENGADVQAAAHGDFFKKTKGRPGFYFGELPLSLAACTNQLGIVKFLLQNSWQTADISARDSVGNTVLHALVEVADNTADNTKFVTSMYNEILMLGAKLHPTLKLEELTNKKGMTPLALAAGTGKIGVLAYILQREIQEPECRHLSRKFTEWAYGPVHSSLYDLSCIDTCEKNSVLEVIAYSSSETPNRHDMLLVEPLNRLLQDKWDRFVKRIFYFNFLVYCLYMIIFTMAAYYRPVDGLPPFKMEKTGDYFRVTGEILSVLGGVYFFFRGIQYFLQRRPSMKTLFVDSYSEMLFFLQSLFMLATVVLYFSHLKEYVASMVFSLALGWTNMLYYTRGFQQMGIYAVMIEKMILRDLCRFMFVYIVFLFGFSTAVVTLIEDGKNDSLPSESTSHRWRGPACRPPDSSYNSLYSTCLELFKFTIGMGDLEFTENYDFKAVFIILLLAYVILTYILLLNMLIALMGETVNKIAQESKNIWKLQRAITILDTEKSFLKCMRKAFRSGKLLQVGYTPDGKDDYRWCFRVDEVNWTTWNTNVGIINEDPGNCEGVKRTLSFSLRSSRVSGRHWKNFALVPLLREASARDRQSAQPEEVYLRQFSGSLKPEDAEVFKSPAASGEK
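TRPV1-expressing cells were cultured overnight at 35.5C and loaded with Fluo-8 calcium dye for 40 to 90 min at room temperature. After a 10 s baseline, compound was added and calcium influx was read kinetically for 3 min (ex 480/em 520 nm).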
CtBP-E1A inh: inhibitors of CtBP/E1A interaction. activity change, % (concentration not given with the values). AID 651724. 340,000 compounds, 0.49% hits. AlphaScreen GST-E1A/His-CtBP binding, 1536-well; stronger effect = lower value; control for the full effect not named in the record; in the data active means activity change below about -65%; inconclusive means about -30% to -65%; inactive means above about -30%; further: on the % scale 0 is the no-effect control and ±100 the full control effect
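GST-E1A and His-tagged CtBP (125 nM each as 5X stock) were preincubated with pin-transferred compound for 2 h at 37 °C in the dark, then glutathione donor and nickel acceptor beads were added for 1 h before AlphaScreen reading.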
gsp agonist: gsp mutant agonism | gsp mutant cells, cAMP HTRF, 30 min; control for the full effect not named in the record | AID 624287 | Potency, µM (highest dose often 76.9 µM), for inactives: at the top dose activation (cAMP increase), actives largely listed as activators | 340,000 compounds, 0.13% hits; active = well fitted activation curve with a large enough effect; inconclusive = small, poorly fitted or top-dose-only effect, or another doubt; inactive = no such curve, though single readings can be large or run the other way; cell line not stated here;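 further: phosphodiesterase inhibitor Ro 20-1724 added with compounds to block cAMP breakdown; potency means the concentration at half of the fitted maximal effect; nearly all actives have a fitted effect of over 60% in size; about a fifth of the inactives were tested at one dose only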
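Cells stably selected in G418 were plated at 2000/well, grown 16-24 hr, then given compounds in DMSO with the PDE inhibitor […] (300 uM solution added) for 30 min at 37C; cAMP was read by HTRF.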
Sfp PPTase inh: Sfp phosphopantetheinyl transferase inhibition. AID 1490. Biochemical Sfp PPTase activity, qHTS. Potency, µM, for inactives: max response, negative = inhibition, actives largely listed as inhibitors. Q9F4F7. 310,000 compounds, 3.5% hits; active means well fitted inhibition curve with a large enough effect; inconclusive means small, poorly fitted or top-dose-only effect, or another doubt; inactive means no such curve, though single readings can be large or run the other way;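 further: the enzyme is Sfp with the accession as filed and its product quenches rhodamine fluorescence; potency means the concentration at half of the fitted maximal effect; 0% = enzyme reaction without inhibitor and -100% = no enzyme wells; top concentration of the series not given in the record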
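Fluorescence-quenching assay: 15 nM Sfp-PPTase preincubated 15 min at room temperature with compound, then 5 uM rhodamine-CoA and 12.5 uM BHQ-2-labelled YbbR peptide added. Fluorescence (ex 525/em 598 nm) read at start and after 30 min; difference gives rate.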
ClpP mod: qHTS Assay for Activators of ClpP; ATP-dependent Clp protease proteolytic subunit (Bacillus subtilis (strain 168)), P80244; purified B. subtilis ClpP, FRET peptide cleavage, 20 min; Potency, µM (titrated, usually from 57.5 µM), inactives show at the top dose activity change, negative = active; 340,000 compounds, 1.9% hits; active = well fitted falling curve with a large enough effect; inconclusive = small, poorly fitted or top-dose-only effect; inactive = no such curve, though single readings can be large or run the other way; further: potency means the concentration at half of the fitted maximal effect; the source files actives as falling curves though it sought activators and does not explain the sign; nearly all actives have a fitted effect of over 65% in size; many hits overshoot -100%
Target sequence (P80244 whole entry, looked up): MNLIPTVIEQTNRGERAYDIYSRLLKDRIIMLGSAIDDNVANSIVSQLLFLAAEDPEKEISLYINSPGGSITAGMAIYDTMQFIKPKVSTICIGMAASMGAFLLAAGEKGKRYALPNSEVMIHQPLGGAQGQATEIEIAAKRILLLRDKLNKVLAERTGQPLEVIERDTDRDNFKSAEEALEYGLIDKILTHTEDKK
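FRET quenching reversal measured ClpP activation: 10 microg/mL B. subtilis ClpP at pH 8 with the FRET-FV decapeptide, read at 430 nm after 320 nm excitation. The 20-min minus 0-min signal was scaled between DMSO/no-enzyme wells and ADEP (5.8 microM final).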
Menin-MLL FL inh: menin-MLL binding inhibition, fluorescein peptide; 290,000 tested, under 10 active; AID 1766; FP activity change, % at 61.4 µM; Fluorescence polarization, fluorescein-MLL peptide displacement from menin; inconclusive = falling polarisation curve, or a change in total fluorescence; inactive = total fluorescence flat and polarisation flat or rising; no compound was filed as active; the % refers to the polarisation; negative = inhibition;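 further: % of control where 0% means no effect; inhibitors lower the polarisation; unlabelled MLL peptide was the positive control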
gsp antag: gsp mutant antagonism | 340,000 compounds, 0.4% hits | gsp-mutant cells, cAMP HTRF, 30 min; control for the full effect not named in the record | Potency, µM (titrated, usually from 76.9 µM), without a hit: top-dose activity change, negative = inhibition, most hits filed as inhibitors; active = falling curve of any shape with a large fitted effect; inconclusive = falling curve, mostly with a smaller effect; inactive = flat or rising curve; cell line not stated here;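 further: intracellular cAMP measured with PDE inhibitor Ro 20-1724 present during compound exposure; potency means the concentration at half of the fitted maximal effect; on the % scale 0 is the no-effect control and ±100 the full control effect; nearly all actives have a fitted effect of over 65% in size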
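HTRF cAMP read-out (cAMP-d2 plus anti-cAMP antibody-K in lysis buffer, 30 min RT). Before lysis, cells are exposed to compounds with […] for 30 min at 37C in DPBS containing Ca/Mg, BSA and Tween 20.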
* hit, by the source's call; u = inconclusive; x = no result given; & = joins results of further samples; [ ] = remark or other dose.

SMILES	TRPV1 PAM	CtBP-E1A inh	gsp agonist	Sfp PPTase inh	ClpP mod	Menin-MLL FL inh	gsp antag
COc1ccc(-c2c(-c3ccsc3)oc(=O)c3cc(OC)c(OC)cc23)cc1	3	x	-39%[inhibitor]	x	u	x	-11%
CCCNC(=S)Nc1ccccc1	13	x	2%	11%	-0.5%	4.8	3%
CC(=O)Nc1ccc(S(=O)(=O)N2CCN(Cc3cccc([N+](=O)[O-])c3)CC2)cc1	3	-5	-14%[15.4 µM]	-27%	x	-4.4	-22%
CCNC(=O)CCSc1nnc(-c2ccncc2)o1	-4	-8	21%[15.4 µM]	20%	x	-1.6	2%
O=C(CN1C(=O)CSc2ccc(S(=O)(=O)N3CCOCC3)cc21)NCCc1ccccc1	x	-9	26%	x	-0.9%	x	x
CCOc1ccccc1OCCCC(=O)NNC(=O)c1ccc(F)cc1	x	-6	22%	x	x	x	2%
O=C(NCCN1CCOCC1)C(=O)NCC1OCCN1S(=O)(=O)c1ccccc1 (stereo not given)	-10	6	-6%	-6%	0.6%	x	11%
CCOc1ccc(OCc2cccc(C(=O)N3CCCC3)c2)cc1	-6	41	-20%	15%	0.6%	5.6	u
Cc1c(Cl)c([N+](=O)[O-])nn1CC(=O)NCc1cccnc1	1	7	2%	20%	x	-1.5	9%
CN(/C(=N\S(=O)(=O)c1ccccc1)C(F)(F)F)c1ccccc1	5	2	-22%	7%	-2.0%	0.0	-4%[15.4 µM]
O=C(Nc1nccs1)C1(c2ccc(Cl)cc2)CC1	2	5	3%	-5%	0.6%	1.6	-2%
O=C(CCNC(=O)c1ccc(Br)cc1)Nc1cccc(S(=O)(=O)N2CCCC2)c1	-1	-12	2%	x	-1.5%	x	-22%
O=C(NCc1cccc(Cl)c1)c1cccc(S(=O)(=O)N2CCCC2)c1	-13	-1	8%	x	-0.9%	x	2%
CCN(CC)CCn1c2c(c(SCC(=O)Nc3ccc4c(c3)OCO4)nc1=O)CCC2	-2	3	6%[15.4 µM]	x	0.1%	x	8%
COc1cc(/C=C/C(=O)OCC(=O)N2CCCCCC2)cc(OC)c1OC	x	-2	-131%[inhibitor]	x	4.0%	x	x
O=[N+]([O-])c1ccccc1N=Nc1ccc(O)cc1	x	x	-15%	x	1.6%	x	-8%
CCc1nnc(NC(=O)CCNC(=O)c2ccccc2Cl)s1	-1	0	13%[15.4 µM]	22%	-2.3%	-2.7	8%
Cc1cnc(C(=O)OCC(=O)Nc2ccccc2-c2ccccc2)cn1	11	3	-36%[inhibitor]	x	0.1%	x	4%
Cc1cc(N2C(=O)C(O)=C(C(=O)c3ccco3)C2c2cccc(O)c2)no1 (stereo not given)	-1	3	u	-14%	-0.2%	0.8	6%
COc1ccc(CNCC(O)(c2ccccc2)c2ccc(F)cc2)cc1OC (stereo not given)	0	-7	9%	20%	x	1.0	0%
CC1(c2ccc([N+](=O)[O-])cc2)NC(=O)N(CC(=O)c2ccc3c(c2)OCO3)C1=O (stereo not given)	-6	-4	8%[15.4 µM]	x	-2.3%	x	10%
Cc1ccc(NC(=O)c2cccc3ccccc23)cc1	-6	9	0%[15.4 µM]	30%	0.2%	0.0	-14%
O=C(OCCN=C1NS(=O)(=O)c2ccccc21)c1ccncc1	-2	1	-4%	19%	-2.2%	1.7	5%
Cc1c(NC(=S)NC(=O)c2ccc(COc3ccccc3)cc2)cccc1C(=O)O	5	-1	10%	-18%	0.3%	2.9	u
COCCCNC(=S)NNC(=O)c1cc(-c2ccncc2)nc2ccccc12	u	2	-26%	8%	-0.7%	-0.9	-4%
Following part
SMILES	TRPV1 PAM	CtBP-E1A inh	gsp agonist	Sfp PPTase inh	ClpP mod	Menin-MLL FL inh	gsp antag
CC(C)(O)[C@H](O)COc1c2occc2cc2ccc(=O)oc12	-24	4	x	6%	-0.3%	3.4	2%
CN(C)CC(C)(C)CNS(=O)(=O)c1cccc2nsnc12	-1	0	-39%[inhibitor]	11%	-0.8%	5.9	6%
CC(=O)c1c(C(C)=O)c(C)n(NC(=O)c2ccncc2)c1C	x	7	3%	14%	0.4%	-3.7	-11%
COC(=O)[C@]1(C)N[C@H](CN(C)C(=O)c2ccc(C)cc2)[C@@H]2C(=O)N(Cc3ccccc3)C(=O)[C@@H]21	x	4	x	x	1.4%	x	6%
COc1ccc(C#Cc2ccc3c(=O)c4ccccc4n(C)c3c2)cc1	20	x	15%	1%	4.0%	7.9	-9%
COc1cc(C(=O)NCCCNc2ccc([N+](=O)[O-])cc2)cc(OC)c1OC	u	0	-76%[inhibitor]	-12%	-1.1%	12	-3%
CN1CCN(c2nc(-c3cccnc3)nc3ccccc23)CC1	-1	0	-2%	-1%&5%	25µM*	1.8&-3.2	-2%
CC(O)[C@H]1CNC(=O)C(=O)N1CC1(c2ccccc2)CC1 (stereo not given in full)	1	x	-5%	-9%	-1.0%	3.5	3%
NCC(O)(c1ccc(Cl)cc1)c1ccc(Cl)cc1	-8	x	-18%	-17%	-0.7%	1.3	-1%
Nc1c(-c2ccccc2)c(CN2CCOCC2)nn1-c1ccccc1	1	x	u	4%	-0.6%	3.2	22%
CCOc1ccc(Br)cc1S(=O)(=O)Nc1cccc(S(=O)(=O)Nc2ccccc2C(=O)O)c1	x	x	-21%	x	-20%	x	-4%
COc1ccc(CCNC(=O)c2cc(-c3ccc(Cl)c(Cl)c3)oc2C)cc1	-2	19	-8%	-8%	-19%	1.5	4%
Cc1c(OC(C)C(=O)NCC2CCC(C(=O)O)CC2)ccc2c1oc(=O)c1ccccc12 (stereo not given)	12	2	x	19%	4.8%	1.1	-18%
Cc1cc(C)c2c(=O)[nH]n(C3CCCCCC3)c2n1	-17	5	-54%[inhibitor]	13%	-1.0%	2.5	4%
CC(=O)OC[C@H]1O[C@@H](Sc2cccc3cccnc23)[C@H](OC(C)=O)[C@@H](OC(C)=O)[C@H]1OC(C)=O	6	-4	-3%[15.4 µM]	-2%	4µM*	1.7	5%
O=C1N(c2ccccc2)C(=Nc2ccccc2)SC12CC2	11	-4	-19%[15.4 µM]	23%	x	-1.6	-5%
CC1Cc2ccccc2N1C(=O)CSc1nnc(Cc2ccccc2)n1CCc1ccccc1 (stereo not given)	5	0	-5%	-11%	1.2%	4.6	u
O=C(Cc1ccccc1)NC1CCN(S(=O)(=O)c2ccc(C(=O)O)cc2)CC1	21	2	-4%	10%	0.5%	-0.1	3%
CNC(=O)c1ccccc1NC(=O)c1ccco1	-7	6	0%	-3%	0.5%	6.3	8%
Cc1ccc(-n2nnnc2SC(C)C(=O)Nc2ccccc2-c2ccccc2)cc1 (stereo not given)	-4	6	4%[15.4 µM]	0%	x	2.5	-25%
COc1cccc(-n2nc(C#N)c(Cl)cc2=O)c1	-6	-15	-7%[15.4 µM]	2%	x	-0.6	19%
COc1ccc(C(=O)C(C)OC(=O)c2sc(C)nc2C)cc1 (stereo not given)	u	2	0%	x	1.9%	x	-2%
CCCSc1nsc(NC(=O)CC)n1	8	-6	17%[15.4 µM]	11%	x	1.7	2%
N#CCN1CCN(CC(=O)c2ccc(Br)cc2)CC1	-15	10	2%	0%	x	-1.0	1%
CN1CCN(c2nnc(-c3ccc(F)cc3)c3ccccc23)CC1	17	-1	1%	8%	x	2.2	-5%

Record cards, from the list above. Order of values: TRPV1 PAM, CtBP-E1A inh, gsp agonist, Sfp PPTase inh, ClpP mod, Menin-MLL FL inh, gsp antag
Listed for CCCSc1nsc(NC(=O)CC)n1 → 8, -6, 17%[15.4 µM], 11%, x, 1.7, 2%
Listed for O=C(Nc1nccs1)C1(c2ccc(Cl)cc2)CC1 → 2, 5, 3%, -5%, 0.6%, 1.6, -2%
Listed for CCOc1ccc(Br)cc1S(=O)(=O)Nc1cccc(S(=O)(=O)Nc2ccccc2C(=O)O)c1 → x, x, -21%, x, -20%, x, -4%

(continued)
SMILES	TRPV1 PAM	CtBP-E1A inh	gsp agonist	Sfp PPTase inh	ClpP mod	Menin-MLL FL inh	gsp antag
CCOC(=O)c1sc(NC(=O)C(CC)Sc2nccn2C)nc1C (stereo not given)	5	-9	19%	14%	-1.7%	-0.8	3%
CCCc1nc(SCC(=O)N2c3ccccc3CC2C)c2c(C)c(C)sc2n1 (stereo not given)	2	10	-27%	1%	-6.8%	2.3	21%
O=C(NCCC1=CCCCC1)c1ccc2c(=O)n3c(nc2c1)CCCCC3	x	-1	-30%[inhibitor]	23%	-3.8%	2.9	-9%
CCN(CC)S(=O)(=O)c1ccc2oc(C(=O)NCc3ccc(F)cc3)c(C)c2c1	-12	6	-1%	11%	-0.5%	0.8	-17%
Cc1ccc(/C=C/C(=O)O)cc1S(=O)(=O)N1CCc2ccccc2C1	12	x	8%[15.4 µM]	12%	x	-1.5	-14%
CS(=O)(=O)c1ccc2nc(NC(=O)c3ccco3)sc2c1	-6	3	-134%[inhibitor]	2%	-11%	2.6	1%
CCNC(=O)C/C(C)=N/NC(=O)C(=O)Nc1ccc(CC)cc1	-3	-1	-19%	21%	0.6%	-1.8	4%
COc1cc(NC(C)CCCN)c2ncccc2c1 (stereo not given)	-7	u	x	2%	0.3%	-1.4	-11%
Cc1ccccc1C1CC(=O)Oc2cc(O)ccc21 (stereo not given)	x	2	x	2%	-4.5%	u	6%
Cc1ccccc1NC(=O)Nc1nnc(Cc2ccc([N+](=O)[O-])cc2)s1	9	7	-9%	-22%	1.9%	2.2	0%
Cc1cc(=O)[nH]c(SCC(=O)NCCOc2ccccc2)n1	21	13	-73%[inhibitor]	7%	1.2%	0.8	-9%
CCOc1cc(C)ccc1OCc1nnc(SCC(=O)c2cccc([N+](=O)[O-])c2)n1C	-3	39	-13%	0%	0.7%	0.9	-2%
CCOC(=O)C1=C(C)n2c(s/c(=C/c3cccc([N+](=O)[O-])c3)c2=O)=NC1c1ccc(O)c(OC)c1 (stereo not given)	-5	-9	-8%	-8%	-3.0%	u	3%
O=C(CSc1nnc(Cn2nnc3ccccc32)o1)N(Cc1ccc(Cl)cc1)c1ccccc1	15	-1	-3%	4%	-0.7%	4.1	u
COC(=O)Cc1cccc2c(=O)c3ccccc3oc12	-1	4	26%	1%	x	-2.2	6%
CCCCc1ccc(NC(=O)CSc2nnc(CNC(=O)c3ccco3)o2)cc1	0	1	-21%	17%	0.1%	-11	-1%
COc1ccc(S(=O)(=O)N2CCC(C(=O)NCCCn3ccnc3)CC2)cc1C	-4	-2	1%[15.4 µM]	12%	1.0%	3.7	-8%
